# GIRK2 act – opens human GIRK2 potassium channels. HEK293-GIRK2 thallium flux, Thallos fluorescence. calls only for hits at 25 µM. actives 0.05% (n = 63,000). P48051;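 active = among the strongest 0.2% of first-round signals and kept after retests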;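 note: first round at about 10 µM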
# Target sequence (P48051 whole entry, looked up): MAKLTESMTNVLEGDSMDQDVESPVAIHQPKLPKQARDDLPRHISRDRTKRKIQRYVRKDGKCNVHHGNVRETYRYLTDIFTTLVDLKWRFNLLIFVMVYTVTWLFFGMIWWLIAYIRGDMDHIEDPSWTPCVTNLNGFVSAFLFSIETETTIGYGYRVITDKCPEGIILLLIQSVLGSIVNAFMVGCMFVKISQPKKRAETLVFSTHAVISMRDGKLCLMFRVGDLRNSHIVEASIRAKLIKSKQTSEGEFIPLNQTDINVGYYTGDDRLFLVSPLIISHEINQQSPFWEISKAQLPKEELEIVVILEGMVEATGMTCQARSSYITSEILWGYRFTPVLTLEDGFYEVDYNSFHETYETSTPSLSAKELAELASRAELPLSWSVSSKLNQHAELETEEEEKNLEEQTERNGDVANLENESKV
# Calls only; i = inactive.
SMILES,GIRK2 act
O=C1COc2cc(Cl)ccc2N1Cc1nc(-c2ccc3c(c2)OCO3)no1,i
Nc1c(C(=O)c2cccc(C(O)CO)c2)cnn1-c1ccc(F)cc1 (configuration not stated),i
CCCn1c(=O)c2cc(Cl)ccc2n2c(SCC(=O)Nc3ccc4c(c3)OCO4)nnc12,i
O=C(c1cc2n(n1)CCCO2)N1CCN(c2ccccc2Cl)CC1,i
CC(Oc1ccccc1F)C(=O)N1CCN(c2ccc(-n3ccnc3)nn2)CC1 (configuration not stated),i
COc1ccc(CCNC(=O)C(=O)c2cn(CC(=O)N3CCOCC3)c3ccccc23)cc1,i
CCOC(=O)c1ccc(NC(=O)c2ccc(=O)n(C)n2)cc1,i
O=C(Nc1ccc(Cl)c2ncsc12)c1cccc(Cl)c1,i
Cc1cc(N2C(=O)C(O)=C(C(=O)c3cc4ccccc4o3)C2c2cccs2)no1 (configuration not stated),i
O=C(Cn1nnn(-c2ccc(NC(=O)C3CCC3)cc2)c1=O)NC1CC1,i
O=C(NCc1nc(-c2ccccc2)no1)c1cc(-c2ccccc2)n[nH]1,i
Cc1noc(C)c1CCC(=O)N1CCN(Cc2nc3ccccc3n2C)CC1,i
CN(C)c1ncc(NC(=O)C(c2ccccc2)c2ccccc2)cn1,i
O=C(NCc1cccc2ccccc12)NCC1CCN(Cc2ccco2)CC1,i
CCCc1nnsc1C(=O)Nc1nnc(-c2ccsc2)o1,i
Cc1ccc(NC(=O)N2CCN(c3cc(-n4cccc4)ncn3)CC2)c(C)c1,i
O=C(c1cc(=O)c2ccccc2o1)N1CCC(CSCc2ccco2)CC1,i
COc1ccccc1C(=O)/C=C/c1nc2ccccc2[nH]1,i
CSc1ccccc1C(=O)NC1CC(=O)N(C2CC2)C1 (configuration not stated),i
COc1ccc(CCNS(=O)(=O)c2ccc(NC(=O)CSc3nc4sc(C)c(C)c4c(=O)[nH]3)cc2)cc1OC,i
CCOc1ccc(-c2nc(CSc3nc4c(c(=O)[nH]3)CCC4)c(C)o2)cc1OC,i
C=CCOc1cccc(C2C(C(=O)c3ccco3)=C(O)C(=O)N2CCCN(CC)CC)c1 (configuration not stated),i
O=C(CSc1ccc(F)cc1)NCC1CCN(C(=O)c2ccoc2)CC1,i
COc1cc(OC)cc(C(=O)N2CCC3(CC2)NC(=O)c2cccc(Cl)c2N3)c1,i
COc1ccc2cccc(NC(=O)Cn3c(=O)oc4ccccc43)c2n1,i
O=C(CCC1=NNC2C3CC(c4ccccc4)NN3C=CN12)N1CCOCC1 (configuration not stated),i
Cc1cccc(CNC(=O)Cn2c(C)nc3c(c2=O)CN(Cc2ccccc2)CC3)c1,i
CCCCCC(C)(O)/C=C/[C@H]1C=CC(=O)C1C/C=C\CCCC(=O)O (some centres not stated),i
Cc1cccc(-n2c(C)c(C)n3c4c(=O)n(CC(C)C)c(=O)n(C)c4nc23)c1C,i
Cc1cc(O)c(Cc2c(O)cc(C)[nH]c2=O)c(=O)[nH]1,i
O=C(Nc1ccc2c(c1)N(C(=O)C1CC1)CC2)c1ccc(OC(F)(F)F)cc1,i
CCCCCCCCCCCCCCCC(=O)N[C@H](C)CO,i
O=C1c2ccccc2-c2n[nH]c3cccc1c23,i
O=C(c1ccc(Cl)s1)N1CCOC(Cc2ccccc2)C1 (configuration not stated),i
COC(=O)c1ccccc1NS(=O)(=O)c1cc2c3c(c1)CCC(=O)N3CCC2,i
CCC1=C(C(=O)OC)C(c2ccccc2OC)n2nc(SC)nc2N1 (configuration not stated),i
COC(=O)N1CCN(CCNC(=O)C2(c3ccccc3)CCOCC2)CC1,i
COCC(=O)N1CCN(c2nnc(SCC(=O)NC(C)C)s2)CC1,i
O=C(NCCC(O)c1cccc2ccccc12)c1cccc(Cl)c1 (configuration not stated),i
CCc1ccc(N2CCn3c2nc2c3c(=O)n(CC(=O)O)c(=O)n2C)cc1,i
Cn1c(SCC(=O)Nc2ccccc2)nc2c1c(=O)n(Cc1ccccc1)c(=O)n2C,i
O=C(CSc1nnc2ccc3ccccc3n12)Nc1nsc(-c2ccc(Cl)cc2)n1,i
CCOc1ccccc1NC(=O)N1CCN(Cc2nnnn2-c2cccc(F)c2)CC1,i
COc1cc(OC)nc(NS(=O)(=O)c2ccc(NC(=O)c3ccco3)cc2)n1,i
O=C(c1cc2n(n1)CCCO2)N1CCN(C/C=C/c2ccccc2)CC1,i
Cc1ccc(-c2nnc(Cn3c(=O)oc4ccc(C)cc43)o2)cc1,i
COc1cccc(C(=O)NCc2nc3ccccc3[nH]2)c1,i
COC(=O)c1ccsc1NC(=O)C1CN(C(=O)c2ccc(F)c(F)c2)C1,i
O=C(COc1ccc2c(c1)OCO2)N1CCN(c2cc(N3CCCCC3)ncn2)CC1,i
CCCCS(=O)(=O)NCC1(c2cccs2)CC1,i
Cc1cc(C)n(-c2nccnc2SCC(=O)Nc2ccc(Br)cc2)n1,i
O=C(NC1=NCCS1)C12CC3CC(C1)CC(C(=O)NC1=NCCS1)(C3)C2,i
COc1cccc(C(=O)N2CCN(c3ncnc4c3nnn4-c3ccc(C)cc3)CC2)c1OC,i
COc1cccc(C(=O)N(CCN2CCOCC2)c2nc3c(F)cc(F)cc3s2)c1,i
CN(C)S(=O)(=O)c1ccc(C(=O)N2CC(c3nc(-c4ccncc4)no3)C2)cc1,i
CS(=O)(=O)c1cccc(-c2nnc(NC(=O)NCc3ccc(F)cc3)o2)c1,i
COc1ccc(CNC(=O)NCC2CCN(Cc3ccco3)CC2)cc1,i
O=C(Nc1ccc2c(c1)N(C(=O)c1ccco1)CC2)c1cc(=O)c2ccccc2o1,i
O=C(c1cccc(C(F)(F)F)c1)N1CCC(c2nnc(-c3ccco3)s2)CC1,i
Cc1ccccc1N1CCCn2c1nc1c2c(=O)n(CC(N)=O)c(=O)n1C,i

# More records follow.
SMILES,GIRK2 act
CCC(=O)Nc1ccc(S(=O)(=O)Nc2ccc3c(c2)N(C(=O)c2ccccc2)CCC3)cc1,i
CCc1c(C#N)c(SCC(=O)c2ccccc2)nc2c1C(=O)CC(C)(C)C2,i
Cn1nc(C2CCN(Cc3ccc(F)cc3)CC2)n(-c2ccccc2)c1=O,i
CCOC(=O)c1cccc(NC(=O)CSc2nc3c(c(=O)[nH]2)CN(Cc2ccccc2)CC3)c1,i
O=C(NCc1cccs1)C(=O)Nc1ccc(N2CCCS2(=O)=O)cc1,i
CCCCCC(=O)CC[C@H]1[C@H](O)CC(=O)[C@@H]1CCCCCCC(=O)O,i
O=C(CCCCCn1c(=S)[nH]c2cc3c(cc2c1=O)OCO3)NCc1ccccc1,i
CN(C)C(CNC(=O)Nc1ccc(F)cc1)c1ccc2c(c1)CCO2 (configuration not stated),i
COc1ccc(S(=O)(=O)NCCC(O)c2ccccc2)cc1F (configuration not stated),i
Cc1c(C(=O)NCc2ccccc2)nnn1-c1nccs1,i
COc1ccccc1Oc1ccc(S(=O)(=O)NCc2ccc(C(=O)O)cc2)cc1,i
N[C@@H](Cc1cc(I)c(Oc2cc(I)c(O)c(I)c2)c(I)c1)C(=O)O,i
CCOC(=O)C(=O)NCc1nc(COc2ccc(OC)cc2)no1,i
COc1ccccc1NC(=O)N1CCN(c2cc(OC(C)C)nc(C)n2)CC1,i
Cc1cn2c3c(=O)n(C)c(=O)n(C)c3nc2n1CCNc1ccccc1,i
Cc1cc(C(=O)Nc2nc3ccc4sc(C)nc4c3s2)n(C(C)C)n1,i
COc1ccccc1CNC(=O)c1ccc2c(=O)n(-c3ccccc3)c(=O)[nH]c2c1,i
COc1ccc(NC(=O)c2cn(-c3cc(N(C)C)ncn3)cn2)cc1,i
O=C(Nc1ccc2c(c1)C(=O)N1CCCCC1CCO2)C1COc2ccccc2O1 (configuration not stated),i
COc1ccc(C(=O)Oc2ccc(/C=C/c3ccncc3)cc2OC)cc1,i
Cc1cc(C)n(-c2nc3c(c(=O)[nH]c(=O)n3C)n2CC(O)COc2ccccc2Cl)n1 (configuration not stated),i
COc1ccc(S(=O)(=O)NCCNC(=O)c2ccc(NC(=O)C3CCCC3)cc2)cc1,i
CCCCOc1ccc(C(=O)N2CC(c3nc(-c4cccnc4)no3)C2)cc1,i
Cc1c(Cl)cccc1NC(=O)C(=O)NCCc1ccco1,i

# Rewritten as tab-separated lines: entries from further up.
SMILES	GIRK2 act
COc1ccccc1NC(=O)N1CCN(c2cc(OC(C)C)nc(C)n2)CC1	i
Cc1cc(C(=O)Nc2nc3ccc4sc(C)nc4c3s2)n(C(C)C)n1	i
COc1ccc(C(=O)Oc2ccc(/C=C/c3ccncc3)cc2OC)cc1	i
COc1ccccc1CNC(=O)c1ccc2c(=O)n(-c3ccccc3)c(=O)[nH]c2c1	i
Cc1c(Cl)cccc1NC(=O)C(=O)NCCc1ccco1	i

# (more compounds)
SMILES,GIRK2 act
CCN(CC)CCNc1cc(C)nc2c(C)c(-c3ccc(OC)c(OC)c3)nn12,i
O=C(Cn1ccn2nc(-c3ccc(Cl)cc3)cc2c1=O)N1CCN(c2ccc(F)cc2)CC1,i
O=C(Cn1nc(-c2cccc(Br)c2)ccc1=O)Nc1cccc2ccccc12,i
CC(=O)C1=C(C)NC(SCC(=O)Nc2ccccc2Cl)=C(C#N)C1c1ccc(Cl)cc1 (configuration not stated),i
O=C(NCCC1=CCCCC1)c1ccc2c(=O)n(-c3cccc(C(F)(F)F)c3)c(=S)[nH]c2c1,i
Cn1c(-c2ccccn2)nn(CCNC(=O)c2ccc(OC(F)(F)F)cc2)c1=O,i
COc1cccc(-c2noc(-c3cc(N4CCC(C(N)=O)CC4)nc4ccccc34)n2)c1OC,i
Cc1ccc(C)c(S(=O)(=O)Nc2ccc(C(=O)N3CCCC3)cc2)c1,i
O=C(/C=C/c1ccco1)NCC1(c2ccc(F)cc2)CC1,i
COC(=O)Cn1c(=O)c2c(nc3n(-c4cc(OC)ccc4OC)c(-c4ccccc4)cn23)n(C)c1=O,i
CCCc1nnsc1C(=O)N1CCC(c2nnc(C3CC3)o2)CC1,i
COc1ccc(N2CCN(C(CNS(=O)(=O)c3ccc(F)cc3)c3cccnc3)CC2)cc1 (configuration not stated),i
O=c1c(-c2nc(-c3ccccc3Cl)no2)cccn1Cc1noc(C2CCCCC2)n1,i
COc1ccc(OC)c(-c2cc(C(=O)Nc3ccc4c(c3)C(=O)N(C)c3cc(C)ccc3O4)[nH]n2)c1,i
O=C(O)CCC/C=C\CC1C(=O)C=C[C@@H]1/C=C/C(O)COc1ccccc1 (some centres not stated),i
COc1ccc(CCNC(=O)Nc2nnc(-c3ccsc3)o2)cc1,i
CCOc1ccc(/C=C/c2nc(C#N)c(N3CCN(C(=O)c4cccs4)CC3)o2)cc1,i
COc1ccc(-c2cnc(SCC(N)=O)n2-c2ccc(OC(F)F)cc2)cc1,i
CCN(CC)C(=O)Cn1cc(C(=O)C(=O)NCc2ccc(OC)cc2)c2ccccc21,i
COCCOC(=O)c1c(C)n(C)c2ccc(OC(=O)c3ccc4c(c3)OCO4)cc12,i
Cn1c(=O)[nH]c(=O)c2c1nc(NCCCN1CCOCC1)n2Cc1ccc(F)cc1,i
Cc1noc(-c2cccn(Cc3nc(-c4ccc(F)c(Br)c4)no3)c2=O)n1,i
COc1cc(NC(=O)C2CCCN(c3ccc(-c4cccs4)nn3)C2)ncn1 (configuration not stated),i
O=C(NC1CCN(c2ccc(-c3ccccc3Cl)nn2)CC1)c1ccsc1,i

# Reformatted with bars between the fields: part of the list above.
structure | GIRK2 act
Cc1ccc(C)c(S(=O)(=O)Nc2ccc(C(=O)N3CCCC3)cc2)c1 | i
O=C(/C=C/c1ccco1)NCC1(c2ccc(F)cc2)CC1 | i

# Following part.
SMILES,GIRK2 act
Cc1nc(C)c(-c2ccc(=O)n(CCNC(=O)Cn3cnc4ccccc43)n2)s1,i
COc1ccccc1N1CCN(CCNC(=O)c2ccsc2)CC1,i
CC(C)NC(=O)NC1C2CC3CC(C2)CC1C3 (configuration not stated),i
Cc1cccc(-c2nnc3ccc(NS(=O)(=O)c4ccc(C)cc4C)nn23)c1,i
CC(=O)N1CCc2ccc(NC(=O)c3cc(-c4ccco4)on3)cc2C1,i
Cc1ccc(-c2ccnc(SCC(=O)Nc3ccccc3C(F)(F)F)n2)cc1C,i
Cc1ccc(NC(=O)C(=O)NCc2ccco2)cc1Cl,i
O=C(Cn1ccc2ccccc21)N1CC(c2nc(-c3ccco3)no2)C1,i
COc1ccc(C)cc1-n1nnc(-c2nc(-c3ccc(C)cc3C)cs2)c1N,i
COc1ccc(N2CC(C)Cn3c2nc2c3c(=O)n(CC(C)C)c(=O)n2C)cc1 (configuration not stated),i
c1cncc(-c2noc(C3CN(Cc4ccco4)C3)n2)c1,i
C[C@H](Cc1cc(O)cc(O)c1)OC(=O)C[C@@H](C)OC(=O)c1c(O)cc(O)cc1C[C@@H](C)OC(=O)C[C@@H](C)O,i

# Rewritten with each value named: 3 of the compounds above.
COc1ccc(OC)c(-c2cc(C(=O)Nc3ccc4c(c3)C(=O)N(C)c3cc(C)ccc3O4)[nH]n2)c1
  GIRK2 act: i

O=C(O)CCC/C=C\CC1C(=O)C=C[C@@H]1/C=C/C(O)COc1ccccc1 (some centres not stated)
  GIRK2 act: i

COc1ccc(CCNC(=O)Nc2nnc(-c3ccsc3)o2)cc1
  GIRK2 act: i

# Additional entries follow:
SMILES,GIRK2 act
CCN(c1ccsc1C(=O)N1CCC(C)CC1)S(=O)(=O)c1ccccc1,i
CC(C)S(=O)(=O)c1ccc(CC(=O)N2CCC(CSC3=NCCS3)CC2)cc1,i
O=C(Nc1cnoc1)c1ccc(S(=O)(=O)N2CCCCC2)cc1,i
O=C(CCc1csc(NC(=O)c2ccc[nH]c2=O)n1)NCCc1c[nH]c2ccccc12,i
COc1ccccc1-c1ccc(N2CCN(C(=O)NC3CCCCC3)CC2)nn1,i
CCSc1nnc(NC(=O)C2CCC(CNS(=O)(=O)CC)CC2)s1 (configuration not stated),i
Cc1cc(=O)[nH]c(-n2ncc(C(=O)NC3CC3)c2C)n1,i
CCc1ccc2c(c1)c(=O)c(S(=O)(=O)c1ccc(C)cc1)cn2CC(=O)Nc1ccc(Cl)cc1,i
CC(C)C(=O)Nc1ccc(S(=O)(=O)N2CCN(c3cnccn3)CC2)cc1,i

# Screens as filed in PubChem.

# A portion of the library; the hit share may differ from the screen's.
